Screening results deposited in PubChem by ICCB-Longwood Screening Facility, Harvard Medical School.
HCMV UL50-53 inh – disrupts HCMV UL50-UL53 complex binding; inhibition, % (test concentration not listed); 190,000 compounds, 0.15% hits; HTRF UL50-UL53 interaction, normalized percent inhibition;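 active means both replicates at 50% or more, plus weaker picks with an unusually low signal ratio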;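 further: stock transfer was 100 nL into about 20 µL; 0% = negative control wells and 100% = wells with untagged competitor protein; inactives centre near -12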
Sa growth inh – blocks Staphylococcus aureus growth | S. aureus RN4220 growth, OD600, 20 h, 42 °C; hits give low values | 170,000 compounds, 0.53% hits | relative growth, % (no concentration beside the values);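 active means growth at 42 °C up to 50% and 20 or more points under that at 30 °C, or under 10% at both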;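 further: 300 nL library stock went into each well; scaled to the means of positive and negative controls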
GIV-Gai inh – blocks GIV peptide binding to rat Galpha-i3; Galpha-i3/FITC-GIV peptide fluorescence polarization, 90 min; hits give low values; scaled: aluminum fluoride 0%, vehicle 100%; percent of control (FP), % (no concentration beside the values); 210,000 compounds, 0.42% hits; AID 1224905;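 active means replicate mean at 85% of control or lower, very high polarization wells dropped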;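 further: wells of about 15 µL received 100 nL stock; the first replicate is given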
Target sequence (P08753 whole entry, looked up): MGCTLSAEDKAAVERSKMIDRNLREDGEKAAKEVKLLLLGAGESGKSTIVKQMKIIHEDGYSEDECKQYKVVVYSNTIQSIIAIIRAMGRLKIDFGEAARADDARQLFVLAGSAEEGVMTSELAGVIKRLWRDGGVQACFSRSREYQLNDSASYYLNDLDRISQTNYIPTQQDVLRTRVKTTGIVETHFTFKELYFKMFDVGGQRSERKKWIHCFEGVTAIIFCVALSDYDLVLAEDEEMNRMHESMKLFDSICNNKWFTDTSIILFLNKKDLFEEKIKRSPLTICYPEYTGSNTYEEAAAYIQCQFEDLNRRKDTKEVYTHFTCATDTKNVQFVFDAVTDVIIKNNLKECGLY
Sa growth inh second temp – also measured in Sa growth inh; calls as there; relative growth, %; measured here: growth at 30 °C;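 optical density after 20 h as mean of two plates; 100% = untreated growth and lower means inhibition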
The depositor's hits bear a star; · = no result given; & = joins results of further samples.

SMILES	HCMV UL50-53 inh	Sa growth inh	Sa growth inh second temp	GIV-Gai inh
Cc1ccc(S(=O)(=O)N(C)c2ccc(OCC(=O)OCc3nnc(-c4ccccc4)o3)cc2)cc1	-29	93	89	·
CCCOc1cccc(C(=O)NC(C)c2ccncc2)c1 (configuration not stated)	-10	110	96	103
O/N=C1\COc2ccccc2O1	-21	98	78	108
CCN(CC)CCNC(=O)CN1C(=O)COc2ccc(C)cc21	-22	·	·	99
O=C(CSc1ncnc2c1sc1cccc(F)c12)N1CCN(c2ccccn2)CC1	-46	·	·	101
COc1cccc(-c2nc(SCC(=O)Nc3nccs3)c(-c3ccccc3)[nH]2)c1	-17	·	·	101
Nc1ccc(Cc2nc3cc4ccccc4cc3[nH]2)cc1	·	82	76	113
Cc1cccc(C(=O)NCc2nc3ccccc3[nH]2)c1	-25	87	81	95
COc1ccc(NC(=O)c2ccc3c(=O)n4nc(Nc5ccccc5C)sc4nc3c2)cc1	·	101	100	107
O=C(Cc1cn(Cc2cccc(Cl)c2)c2ccccc12)Nc1cnc2ccccc2c1	-12	·	·	107
Nc1cc(N)nc(SCC(=O)N(Cc2cccs2)c2ccc3c(c2)OCCO3)n1	-5	104	92	·
O=C1NC(=O)N(c2ccccc2)C(=O)/C1=C/c1cc(Br)c(N2CCOCC2)o1	-23	·	·	120
CCOC(=O)/C(C#N)=C(\C)C1CC1	1	76	90	·
O=S(=O)(c1ccc(F)cc1)N1CCN=C1N1CCN(c2cccc(Cl)c2)CC1	-11	·	·	102
CO/C(N)=N/C(=S)Nc1ccc(F)cc1F	-17	82	71	101
CCOC(=O)c1sc(S(C)=O)c2c1CCc1conc1-2 (configuration not stated)	-153	89	84	105
O=C(NC1CCCC1)c1cccc(-c2noc(C3CCC3)n2)c1	-15	·	·	99
CCCCn1c(=N)c(C(N)=O)cc2c(=O)n3ccccc3nc21	-111	99	94	110
CCc1nc2nc(C)cc(Nc3cc(Cl)ccc3C)n2n1	2	100	92	110
CCCn1c2ccccc2c2nnc(SCCN3CCCCC3)nc21	-75	87	74	101
COc1cccc(NC(=S)Nc2ccc(N(C)C)cc2)c1	1	106	98	106
Cc1cc(=O)c2c(ccc3ccccc32)[nH]1	-10	99	85	94
O=C(c1cccc(Cl)c1)N1CCCC1	-3	106	108	·
CC(=O)c1cccc(NC(=O)c2nc(-c3ccccc3)n(-c3cccc(C)c3)n2)c1	-20	102	79	97
NC(=O)c1oc2ccccc2c1NC(=O)COc1ccccc1	-47	85	80	104
CCOc1ccc(-c2nnn(CCC#N)n2)cc1OC	-23	80	84	101
Cc1ccc(S(=O)(=O)C(C)(C)C)s1	-14	109	107	102
COc1nc(C#N)nc(N2CCCCC2)n1	20	67	85	·
COc1ccc(-n2nc(N3CCCC(C(=O)NCc4cccc(Cl)c4)C3)ccc2=O)cc1 (configuration not stated)	-58	·	·	109
CCc1c(O)nc2n(c1=O)CCCS2	-10	·	·	102

Among those listed so far, these have an NH in an aromatic ring:
SMILES	HCMV UL50-53 inh	Sa growth inh	Sa growth inh second temp	GIV-Gai inh
COc1cccc(-c2nc(SCC(=O)Nc3nccs3)c(-c3ccccc3)[nH]2)c1	-17	·	·	101
Nc1ccc(Cc2nc3cc4ccccc4cc3[nH]2)cc1	·	82	76	113
Cc1cccc(C(=O)NCc2nc3ccccc3[nH]2)c1	-25	87	81	95
Cc1cc(=O)c2c(ccc3ccccc32)[nH]1	-10	99	85	94

The list goes on:
SMILES	HCMV UL50-53 inh	Sa growth inh	Sa growth inh second temp	GIV-Gai inh
COc1cccc(-n2nnc3c(sc4nc(C)cc(C)c43)c2=O)c1	-4	92	93	109
O=C(c1cccs1)c1coc2ccc(O)cc12	-11	113	100	·
COc1cccc(NC(=O)CSc2nnc3ccc(C(=O)Nc4ccc(C)cc4)cn23)c1	-10	·	·	101
CCOC(=O)CSc1nc2ccc(NC(=O)CSc3nc4sc5c(c4c(=O)n3C)CCCC5)cc2s1	-22	·	·	112
O=C1N2c3ccccc3CCc3cccc(c32)C1(O)C(F)(F)F (configuration not stated)	-35	63	65	·
O=C(CSC1=NC2(CCCC2)N=C1c1ccccc1)Nc1ccccc1	·	119	78	100
Cc1ccc(C)c(S(=O)(=O)N(CC(N)=O)C(C)c2ccccc2)c1 (configuration not stated)	-1	103	87	·
CCC(=O)N(c1nnc(SCc2cc(=O)n3c(C)csc3n2)s1)C1CC1	-22	73	80	·
COC(=O)c1ccc(NC(=O)NC(=O)C(F)(F)F)cc1	·	107	92	94
S=c1[nH]c(-c2ccccc2)cs1	-42	16*	48*	·
C=CCNCc1ccccc1F	-17	112	101	100
Cc1ccc(S(=O)(=O)NCCc2nnc3ccc(SCc4cccc(F)c4)nn23)cc1	·	125	98	110
Cc1ccc(-c2nc3ccccn3c2Nc2ccc3c(c2)OCO3)cc1	55	105	72	99
COCCCNC(=O)c1ccc(NC(=O)c2nsc3ccccc23)cc1	·	76	67	109
CCCc1nnc(NC(=O)c2nc(SCC)ncc2Cl)s1	-35	106	90	96
Cc1ccccc1C(=O)NCCc1csc(-c2ccc(C(F)(F)F)cc2)n1	·	105	90	100
O=C(O)CCC(=O)Nc1ccc(Oc2c(Cl)cccc2Cl)nc1	21	102	81	103
COC(=O)c1cc2occc2n1Cc1ccc(C)cc1	-11	80	83	100
O=C(CN1C(=O)CCSc2ccccc21)Nc1ccc(F)cc1	-10	·	·	99
CC1(C)Cc2nc(N3CCCC3)c(C#N)cc2CO1	-6	119	93	·
O=C(Nc1cccc(Cl)c1)c1cc(-c2cccc(Cl)c2)on1	2	94	94	97
Cc1cc(C(=O)O)c(S(C)(=O)=O)s1	1	120	86	·
CCOCCOC(=O)C1=C(C)NC2=C(C(=O)CC(c3ccc(OC)cc3)C2)C1c1ccc(OCC)cc1 (configuration not stated)	-26	·	·	99
COC(=O)c1ccccc1NC(=O)Cn1c(=O)c2ccccc2n2nncc12	-6	85	84	107&96
CCOC(=O)c1cn(CC)c2c(ccc3ccccc32)c1=O	4	64	75	100
COc1ccc(-c2nonc2NC(=O)C(C)Oc2ccc(C(C)C)cc2)cc1C (configuration not stated)	2	·	·	108
S=c1[nH]cnc2scc(-c3ccc(Cl)cc3)c12	·	70	64	105
Cn1c(=O)c2c(nc(Br)n2CC(=O)c2ccccc2)n(C)c1=O	-10	90	88	·
CCOc1ccc(CNC(=O)Cn2ncc3c(=O)oc4ccc(C)cc4c32)cc1	-28	102	90	104
COCCCNC(=O)c1ccc2c(c1)N(Cc1ccccc1C)C(=O)c1ccccc1S2=O (configuration not stated)	-25	·	·	102
Clc1ccc(-c2nc(N3CCOCC3)nc3ccccc23)cc1	-10	84	81	99
COC(=O)c1ccc(Cl)cc1NC(=O)NC(C)c1c(-n2cccc2)sc(C)c1C (configuration not stated)	-29	106	89	100
CN(CCC#N)c1ncnc2c1oc1ccccc12	-23	98	80	·
O=C(Nc1nc2ccccc2s1)NC1CCCCC1	5	96	96	98
c1ccc(COc2ccc(C3SCCS3)cc2)cc1	-18	120	90	109
c1ccc(Nc2c(-c3ccco3)nc3ccccn23)cc1	·	92	77	100
O=C(Cn1nnc(C(=O)O)c1C(=O)O)Nc1ccc(F)cc1	1	·	·	101
CCOCCCNC(=O)c1cc2n(n1)CCCN(Cc1ccc(F)cc1)C2=O	-9	·	·	101
Cc1ccnc(NC(c2ccc3c(c2)OCO3)c2c(NC(=O)c3ccccc3)sc(C)c2C)c1 (configuration not stated)	-26	·	·	108
O=C(NCCN1CCOCC1)c1cc2nc(-c3ccc4c(c3)OCO4)cc(C(F)(F)F)n2n1	-73	·	·	103
O=C(Nc1nn[nH]n1)c1cc(F)c(F)cc1Cl	-6	102	89	·
CN(CC(=O)NCc1ccccc1)c1nnc(N2CCCC2=O)s1	·	98	97	107
CCNC(=S)Nc1ccc2cn[nH]c2c1	4	85	98	·
COc1ccc(N2CCN(C(=O)c3ccc4c(=O)n(CCc5ccc(OC)c(OC)c5)c(=O)[nH]c4c3)CC2)cc1	·	93	101	108
O=C(/C=C/c1ccco1)Nc1ccc(S(=O)(=O)N2CCc3ccccc32)cc1	10	99	101	106
COc1ccc(CN(Cc2ccco2)C(=O)COc2ccc(Cl)cc2C)cc1	-21	104	92	100
Cc1ccc(Nc2c(-c3ccc(C)o3)nc3cccc(C)n23)cc1	-10	20	2	105
O=Cc1c(O)n(-c2ccc(Cl)cc2)c(=O)[nH]c1=O	-14	91	91	·
CN1CCC(N(C)C(=O)NC2CC(=O)N(c3cccc(F)c3)C2)CC1 (configuration not stated)	15	112	96	105
O=C(c1ccc(F)cc1)N1CCN(c2ccc(=O)n(-c3ccc(Cl)cc3)n2)CC1	-68	·	·	103
Continued:
SMILES	HCMV UL50-53 inh	Sa growth inh	Sa growth inh second temp	GIV-Gai inh
CCOc1ccc(NC(=O)c2c(NCc3ccc(C)o3)sc3c2CCC(C)C3)cc1 (configuration not stated)	·	80	94	106
CC(C)(C)S(=O)(=O)c1ccc(N)nc1	-5	95	93	100
COc1ccc(C(=O)N2CCN(C)CC2)cc1OC	-6	96	93	104
O=C(CSC1CCCC1)NCC1CCCCC1	-9	109	95	·
CC(=O)NS(=O)(=O)c1ccc(N=Cc2ccccc2O)cc1	·	81	52	104
Cc1cc2c(=O)n(Cc3ccco3)c(SCc3nc4ccccc4[nH]3)nc2s1	-28	88	73	105
O=C(O)CCCNc1nc(-c2ccccc2)cs1	-22	72	102	·
Cc1ccc2cc3c(nc2c1)N(c1ccccc1)CC3	·	124	90	106
Cc1ccc2ncc(C(=O)c3ccc(C)c(C)c3)c(S(=O)(=O)c3ccccc3)c2c1	-6	92	71	107
CSc1cccc(Nc2cc(C(=O)NCCCN(C)c3ccccc3)c3ccccc3n2)c1	·	102	99	108
O=C(O)c1ccc(N=Cc2cccs2)cc1	-5	93	89	100
CN(Cc1ccccc1)C(=O)Cn1cnc2onc(-c3ccc(Cl)cc3)c2c1=O	6	99	95	106
CCC1Cn2c(C(=O)NCCOC)cc3c(Cl)ccc(c32)O1 (configuration not stated)	-9	·	·	106
CC(C)NC(=S)Nc1ccc2nc3n(c(=O)c2c1)CCCCC3	-4	91	89	95
CCc1c(C)nc2ncnn2c1Nc1ccccc1C	-18	·	·	100
CC(C)(C)S(=O)(=O)c1cccs1	-11	96	82	·
N#C/C(N)=C(\C#N)N=Cc1ccc(C#N)cc1	-50	110	89	133
COc1cc(/C=C2\C(=O)NC(=O)N(c3cccc(Br)c3)C2=O)c([N+](=O)[O-])cc1OC	-57	·	·	108
CCOC(=O)c1cc(-c2ccc(F)cc2)n(CCC(=O)Nc2nc3cc(C)c(C)cc3s2)c1C	·	84	89	96
O=C(O)Cc1csc2ccccc12	-24	·	·	107

A different layout for some results above:
| SMILES | HCMV UL50-53 inh | Sa growth inh | Sa growth inh second temp | GIV-Gai inh |
| --- | --- | --- | --- | --- |
| CC(C)(C)S(=O)(=O)c1cccs1 | -11 | 96 | 82 | · |
| N#C/C(N)=C(\C#N)N=Cc1ccc(C#N)cc1 | -50 | 110 | 89 | 133 |
| COc1cc(/C=C2\C(=O)NC(=O)N(c3cccc(Br)c3)C2=O)c([N+](=O)[O-])cc1OC | -57 | · | · | 108 |
| CCOC(=O)c1cc(-c2ccc(F)cc2)n(CCC(=O)Nc2nc3cc(C)c(C)cc3s2)c1C | · | 84 | 89 | 96 |

(more compounds)
SMILES	HCMV UL50-53 inh	Sa growth inh	Sa growth inh second temp	GIV-Gai inh
COc1cccc(-c2nn(C)c3sc(C(=O)NCCc4ccc(Cl)cc4)cc23)c1	-24	98	92	105
Cc1cccc(NC(=O)Cn2cnc(S(=O)(=O)N3CCCC3)c2)c1C	·	77	88	101
CCOC(=O)c1c(C)sc(-c2c(-c3cc(C)ccc3C)[nH]c3c2c(=O)n(C)c(=O)n3C)c1O	15	101	83	195
O=c1[nH]c(NCCCN2CCOCC2)nnc1-c1ccccc1	-20	98	91	102
C=Cc1ccc(Cn2nc3n(C(C)C)c(=O)c4ccc(C(=O)NCC(C)C)cc4n3c2=O)cc1	-43	·	·	106
CCN(CC)C(=O)c1cc(C)no1	12	100	100	104
CCCCCSc1nc2sc3c(c2c(=O)n1-c1ccccc1)CCN(C(C)=O)C3	14	87	88	108
C=C(C)Cn1cnc2c(oc3nc4c(cc32)CCCC4)c1=O	4	·	·	101
COc1ccc(CN2C(=O)N(c3ccc(F)cc3)C(=O)C2CC(=O)Nc2cc(OC)cc(OC)c2)cc1 (configuration not stated)	·	97	83	105
CCOC(=O)c1cnc2c(ccc3ccccc32)c1NCc1ccco1	·	100	90	104
O=C(Cc1ccccc1)Nc1nonc1NC(=O)c1ccccc1	3	93	90	·
COc1ccc(Cn2c(CCC(=O)Nc3ccc(Cl)cc3)nc3cccnc32)cc1	-42	·	·	100
NCCN1CCCCC1	-4	82	91	·
Cc1onc(-c2ccccc2)c1CNC(=O)Nc1cccc(Cl)c1	-3	92	81	118
CCOC(=O)C(C)(C)Sc1nc(-c2ccc(F)cc2)nc2c1c(=O)n(C)c(=O)n2C	·	105	92	104
COC(=O)c1cc(Cl)c(NC(=O)/C=C/c2ccc(Cl)cc2Cl)cc1OC	-42	106	89	105
CC(=O)N1CCc2cc(S(=O)(=O)CCC(=O)Nc3ccc(C)cn3)ccc21	-6	104	89	100
COc1ccc(NC(=O)c2oc3ccc(S(=O)(=O)N4CCOCC4)cc3c2C)c(OC)c1	·	100	100	104
Clc1ccc(-c2noc3ncnc(NCc4ccccc4)c23)cc1	-34	89	79	102
CCc1ccc(CNC(=O)C2CCN(c3nn4cc(-c5ccc(F)cc5)nc4s3)CC2)cc1	·	113	91	103
Cc1cc(C)c2c(=O)[nH]sc2n1	8	68	51	114
CCOC(=O)c1ccc(NC(=O)CC2C(=O)OCCN2CC)cc1 (configuration not stated)	3	101	83	105
